# Sa helicase inh: S. aureus DNA helicase inhibition. AID 485395. inhibition, %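 (tested at about 80 µM)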. 120,000 compounds, 0.05% hits. purified S. aureus helicase, fluorescence unwinding assay; about half of the hits fall short of the stated cut;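 active = both duplicates at 50% or more, or one of them with a favoured structure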;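 note: 0% = mean of negative control wells and 100% = mean of positive control wells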
# MgrA-DNA mod: S. aureus MgrA-DNA binding modulation. fluorescence polarization. inhibition, %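 (about 10 µg/mL by stock and volumes)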. 84,000 compounds, 0.13% hits;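 active = above 50% in either of two replicates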;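 note: 0% = protein plus DNA without compound and 100% = DNA alone without protein; higher means less MgrA bound to DNA so lower polarization; one replicate is shown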
# The depositor's hits bear a star; / = no result given. Only part of the results is shown, so the mix of outcomes need not match the whole.
nr	SMILES	Sa helicase inh	MgrA-DNA mod
1	O=C(O)CCCC1OC(CCCC(=O)O)OC(CCCC(=O)O)O1 (stereo not drawn)	12.0	-1.3
2	Cc1cc(CS)cs1	19.0	/
3	COc1ccc(/C=C(\C#N)S(=O)(=O)c2ccc(Cl)cc2)cc1	/	0.1
4	Cc1ccc(-c2nnc(-c3csc(C)n3)o2)cc1	/	-2.4
5	CC1Cc2ccccc2N1C(=O)C1CCCO1 (stereo not drawn)	18.0	-0.1
6	CCOC(=O)N1CCC(NC(=O)CCc2cn(Cc3ccccc3C)c3ccccc23)CC1	5.0	0.5
7	Cc1ccc(N2CCN(C(=O)C(c3ccccc3)c3ccccc3)CC2)cc1C	10.0	-1.4
8	COc1ccc(/C=N/c2ccco2)cc1	-12.0	/
9	CCC(CO)NC(=S)Nc1c(C)cccc1C (stereo not drawn)	20.0	/
10	CSc1ccc(-c2nc(CSCC(=O)N(C)Cc3ccccc3)c(C)o2)cc1	9.0	/
11	CCOC(=O)C1=C(C)NC(=O)CC1c1ccc(F)cc1 (stereo not drawn)	/	1.1
12	Cc1ccc(C)c(Cn2cccc2C2=NC(C)(C)CO2)c1	4.0	/
13	COc1ccc(C(=O)OC2CCN(C)CC2)cc1	7.0	-3.4
14	O=c1[nH]nc2ccccn12	-8.0	/
15	c1ccc2c(c1)CC(Nc1ccc3cn[nH]c3c1)C2	17.0	3.9
16	COC(=O)C12CCC3(C(=O)OC)CC(C(=O)OC)(CC(C(=O)OC)(C1)C3=O)C2=O	-22.0	/
17	COc1ccccc1OCC(=O)N/N=C1/SCC(=O)N1Cc1ccccc1	12.0	0.3
18	N#CCOC(=O)c1ccccc1Sc1ccccc1C#N	-9.0	/
19	Clc1cc(CN2CCSCC2)c(Cl)s1	/	0.1
20	O=C(OCC(=O)N1CCCCCC1)c1ccccc1	-11.0	/
21	O=C(O)c1nnn(-c2cccc(C(F)(F)F)c2)c1-c1ccccc1	/	-0.9
22	Cc1csc(/C(C#N)=N/OC(=O)c2ccco2)n1	-16.0	/
23	N#Cc1ccc(-c2cccs2)nc1SCc1ccncc1	13.0	-2.7
24	O=C(COc1ccccc1)c1nnc(-c2ccc(Cl)cc2)o1	13.0	/
25	CSc1scc2c1/C(=N/OC(C)=O)CC(C)(C)C2	26.0	/
26	C#CCN(C)Cc1ccccc1	/	5.0
27	COc1cccc(OCc2nnc(SCc3csc(Nc4ccc(C)cc4)n3)n2N)c1	-3.0	/
28	C=CCC(O)(CC=C)C1CCCN1 (stereo not drawn)	2.0	4.5
29	OC(CN1CCCC1)Cn1c2ccccc2c2ccccc21 (stereo not drawn)	4.0	-2.3
30	Cc1ccc(CNCCO)o1	11.0	1.0
31	O=C(O)C(Cc1ccccc1)N1C(=O)CCC1=O (stereo not drawn)	4.0	-0.8
32	CSc1sc(C#N)c2c1/C(=N\O)CCC2	/	-0.8
33	COC(=O)c1ccc(CO)nc1	1.0	2.7
34	Cc1cc(C)n(C(=O)c2ccc(NC(=O)CC(C)C)cc2)n1	4.0	/
35	O=C(N/N=C/C=C/c1ccccc1)c1ccccc1-n1cccc1	/	-0.5
36	Cn1cc(NC(=O)NC2CCCCC2)c2ccccc2c1=O	7.0	3.0
37	O=C(Nc1ccccc1C(=O)Nc1nncs1)c1ccccc1	/	3.1
38	Cc1ccc(CN(CC(=O)NC2CCCC2)C(=O)CSc2nnc(COc3ccccc3)o2)cc1	1.0	6.5
39	CCCN(C)C(=O)c1cc2ccccc2oc1=O	6.0	1.2
40	O=C1c2ccccc2C(=O)N1c1ccc(OCc2ccccc2)cc1	6.0	/
41	OCCCc1nc2ccccc2n1CCCOc1ccccc1	-3.0	/
42	CCOc1cc(CN2CCN(C(=O)CC(C)C)CC2)ccc1OC	2.0	7.0
43	CCN1C(=O)/C(=C/c2cn(CC)c3ccccc23)NC1=S	6.0	-2.9
44	N#CC1=C(N)OC(C2CC2)=C(C#N)C1c1ccco1 (stereo not drawn)	/	-1.4
45	Oc1c(Cl)cc(Cl)cc1C(O)(C(F)(F)F)C(F)(F)F	21.0	0.0
46	O=C(OCC(=O)N1CCc2ccccc21)c1ccccc1O	-13.0	-1.8
47	O=C(NC12CC3CC(CC(C3)C1)C2)n1ncc2cc(Cl)ccc21	12.0	5.4
48	CCc1nc2cccnc2n1-c1ccc(CC(=O)NC2CCCC2)cc1	2.0	/
49	Cc1nc2c(C(=O)N3CCCCC3)c[nH]n2c(=O)c1Cc1ccc(Cl)cc1	16.0	/
50	Cc1ccc(S(=O)(=O)NC(=O)c2cc(C)n(CCCN3CCOCC3)c2C)cc1	7.0	/

# The list continues:
nr	SMILES	Sa helicase inh	MgrA-DNA mod
51	Cc1cccc(N/C=C2/CCCCC2=O)c1	13.0	14.3
52	COc1cccc(/C=N/N(C)C2=NS(=O)(=O)c3ccccc32)c1O	-41.0	/
53	CCCc1nc2ccccc2n1CC(=O)Nc1ccc(OC)cc1OC	-19.0	-3.8
54	O=C(OC/C(=N\O)c1ccccc1)c1ccc(Br)cc1	4.0	/
55	CC(C)N(Cc1ccccc1)C(=O)Cc1noc2ccccc12	4.0	1.1
56	Cc1ccn2cc(CCNC(=O)CC(C)(C)C)nc2c1	0.0	-0.9
57	c1ccc(C2CC(c3ccco3)n3ncnc3N2)cc1 (stereo not drawn)	1.0	1.6
58	COc1ccc2cc(/C(C)=N/n3c(=S)[nH][nH]c3=S)ccc2c1	3.0	/
59	COc1ccc(Cl)cc1C(=O)Nc1ccc(C(=O)Nc2cccc(-c3nc4ccccc4o3)c2)cc1	/	0.3
60	CSc1nc2sc3c(c2c(=O)n1-c1ccccc1)CCN(C(C)=O)C3	-11.0	/
61	Cc1cc(C2N=C(N)Nc3nc4ccccc4n32)c(C)n1-c1ccccc1F (stereo not drawn)	3.0	/
62	COc1ccc(OC(=O)c2csc(COc3ccc4nonc4c3)n2)cc1	/	-1.2
63	CNc1ccc(Cl)nn1	19.0	-2.4
64	CCn1nnc2c(N3CCC(O)CC3)ncnc21	3.0	/
65	O=c1oc2ccc(Br)cc2cc1-c1csc(Nc2cccc(C(F)(F)F)c2)n1	/	0.9
66	O=C1CNC(=S)N1CCc1ccccc1	/	-1.2
67	O=C(NCc1cccc(Cl)c1)c1ccc(COc2ccc(Cl)cc2)o1	-6.0	1.2
68	O=C(N/N=C/c1cc(Cl)ccc1O)N/N=C/c1cc(Cl)ccc1O	/	-1.2
69	Cc1cc2c3c(C)n(Cc4ccccc4)c(C)c3c(C)nn2c1	12.0	-0.4
70	CCCn1c(CCCNC(=O)Cc2ccccc2)nc2ccccc21	10.0	/
71	N#Cc1ccccc1NC(=O)Nc1cc(-c2cccs2)nn1-c1ccc(I)cc1	-18.0	/
72	O=C(NC(=S)Nc1ncccn1)c1ccc(F)cc1	-17.0	/
73	O=C(CC(c1ccccc1)C1CCCCC1=O)c1ccccc1 (stereo not drawn)	18.0	/
74	CNC(=O)c1ccc2c(c1)CCN2S(C)(=O)=O	22.0	/
75	CC(O)CNC(=O)Cc1cc(=O)[nH]c(=O)[nH]1 (stereo not drawn)	6.0	/
76	O=C(O)CCc1nc2ccccc2[nH]1	10.0	/
77	CCOC(=O)N1CCC(NC(=O)c2ccco2)CC1	/	0.1
78	N#C/C(=C\c1ccccc1O)S(=O)(=O)c1ccc(Cl)cc1	1.0	/
79	O=C(c1noc2c1CCCC2)N1CCCC1	5.0	/
80	CCc1nc2ccccc2n1CC(C)C(=O)O (stereo not drawn)	-4.0	-7.3
81	CCn1c(C(=O)NCCCN2CCc3ccccc3C2)cc2sccc21	14.0	-0.8
82	Cc1cc2c(n1-c1ccc(C(=O)NCc3cccs3)cc1)CCC(C)C2 (stereo not drawn)	-8.0	/
83	COc1ccc(Oc2ncccc2NC(=O)c2cccc3ccccc23)cc1	/	0.5
84	O=C1c2ccccc2C(=O)N1C(CO)C(O)c1ccccc1 (stereo not drawn)	/	-3.2
85	C=CCN(CC=C)S(=O)(=O)c1ccc(C(=O)Nc2nnc(-c3ccc(OC)cc3)o2)cc1	18.0	/
86	Cc1nn(CC(C)C)c(Cl)c1/C=C1/C(=O)N(C)C(=S)N1C	-5.0	/
87	COc1cc2c(C(=O)NCCC(C)C)cn(C)c(=O)c2cc1OC	18.0	-2.1
88	O=C(NCc1ccccn1)C1CCC(CNS(=O)(=O)c2ccc(F)cc2)CC1 (stereo not drawn)	-28.0	/
89	O=C(NC1CCN(c2ncccn2)CC1)C1CC1	16.0	/
90	Cc1ccc(OCc2nc3ccc(N)cc3[nH]2)cc1	23.0	/
91	COc1cccc(C2c3c(oc4ccccc4c3=O)C(=O)N2CCCN2CCOCC2)c1 (stereo not drawn)	8.0	-1.4
92	COc1ccc(CCNC(=O)CSc2nnc(-c3ccco3)c(-c3ccco3)n2)cc1OC	10.0	/
93	COc1ccc(C2=N/C(=C\c3cc(OC)c(OC)c(OC)c3)C(=O)O2)cc1[N+](=O)[O-]	/	2.9
94	CCC(C(=O)N(C)c1ccccc1)c1ccccc1 (stereo not drawn)	-17.0	1.8
95	COc1cccc(C(=O)NCCN2CCN(c3nccc(C(F)(F)F)n3)CC2)c1	/	0.2
96	O=C(c1cc(-c2ccccc2)c(N2CCCCC2)s1)n1ccnc1	-19.0	/
97	Nc1cc(C2CCCC2)nn1-c1ccccc1	12.0	/
98	CC1CCCC(NC(=O)CSc2ccc3c(c2)OCCO3)C1C (stereo not drawn)	-11.0	/
99	O=C(OCc1cc(F)cc2c1OC(c1ccccc1)OC2)C1CC(=O)N(Cc2ccco2)C1 (stereo not drawn)	6.0	/
100	Cc1c(C#N)sc(-c2ncn[nH]2)c1C	31.0	/

# Continuation:
nr	SMILES	Sa helicase inh	MgrA-DNA mod
101	CCN(CC)c1nc(Nc2ccccc2)nc(Oc2ccc(=O)[nH]n2)n1	8.0	-3.0
102	CCOC(=O)N1CCN(c2cc(N3CCC(C)CC3)c3c4c(onc24)-c2ccccc2C3=O)CC1	-122.0	/
103	NC1=NN(c2ccccc2)C(=O)C1	6.0	0.7
104	OC(CNCCc1ccccn1)C(F)(F)F (stereo not drawn)	/	-1.6
105	N#Cc1ccccc1COC(=O)C1COc2ccccc2O1 (stereo not drawn)	0.0	/
106	CCc1ccc(OCC(=O)NCCN2CCOCC2)cc1	-2.0	0.3
107	O=C(CSc1nc(=O)n2ccccc2n1)N1CCCC1	10.0	/
108	O=C(Nc1nccs1)c1cc(Cl)sc1Cl	-15.0	/
109	CCS(=O)(=O)NCC(c1ccco1)N1CCN(c2ccc(F)cc2)CC1 (stereo not drawn)	11.0	/
110	Cc1nn(-c2ccccc2)c(C)c1NC(=O)CN1CC(C)OC(C)C1 (stereo not drawn)	-2.0	/
111	Cn1cnnc1SCC(=O)O	8.0	-3.5
112	CN(C)C=Nc1ccccc1C1C=NNC1=O (stereo not drawn)	/	2.9
113	O=C(NC1CCCC1)C1CCCN1C(=O)OCc1ccccc1 (stereo not drawn)	3.0	0.6
114	Cc1cccc(NC(=O)NCC(c2ccco2)N2CCc3ccccc3C2)c1 (stereo not drawn)	12.0	/
115	COC(=O)c1oc2ccccc2c1-n1cccc1	/	1.0
116	CN(C)S(=O)(=O)c1ccc(C(=O)OCC(N)=O)cc1	13.0	/
117	CCOC(=O)CSc1nc(-c2ccc(C)cc2)ns1	1.0	0.0
118	COc1ccc(N2CC(C(=O)OC(C)C(=O)c3ccccc3)CC2=O)cc1 (stereo not drawn)	-9.0	-1.9
119	C#CCNc1nc(CC(C)C)nc2c1nnn2Cc1ccccc1	11.0	-2.4
120	O=C(CO/N=C/c1ccccc1OC(F)F)N1CCCc2ccccc21	16.0	/
121	CN(C)S(=O)(=O)c1ccc(C(=O)OC2CCCC2)cc1	11.0	/
122	Oc1c(CN2CCc3ccccc3C2)cc(Cl)c2cccnc12	-12.0	/
123	CCCCOC(=O)Cc1c(C)[nH]c(=O)[nH]c1=O	4.0	2.5
124	CCc1ccc(S(=O)(=O)Nc2ccc3oc4c(c3c2)C(=O)CCC4)cc1	6.0	/
125	CCCN(CCC)S(=O)(=O)c1ccc(CCN2C(=O)c3cccnc3C2=O)cc1	12.0	/
126	Cc1ccc(C(=O)NCO)cc1	15.0	-1.7
127	Cc1nnc2n(C3CCCCC3)c(=O)c3c4c(sc3n12)CCC4	2.0	/
128	CC(C)C(=O)NC(C)C(c1cccs1)N1CCN(c2ccccc2)CC1 (stereo not drawn)	16.0	/
129	c1ccc(-c2nnc3ccc4nnc(-c5ccccc5)n4n23)cc1	17.0	-4.2
130	CCCC(=O)N(CC)Cc1cc2cc(OC)ccc2[nH]c1=O	18.0	-1.5
131	O=C(O)c1ccc(C(=O)Nc2cccc(Cl)c2)c(C(=O)O)c1	-18.0	/
132	CS(=O)(=O)Cc1ccc(C(=O)O)cc1	-9.0	/
133	CCOc1ccccc1/C=N/NC(=O)c1ccccc1O	/	0.3
134	CCN(Cc1ccncc1)C(=O)c1ccc(F)cc1F	-5.0	0.5
135	NNC(=O)CN1c2ccccc2Sc2ccccc21	/	-1.4
136	Cc1nc2cc(-c3ccccc3)nn2c(C)c1CCC(=O)NC1CCCC1	7.0	/

# Screening results: PubChem BioAssay, ICCB-Longwood Screening Facility, Harvard Medical School
